# CDC25B CDK2 inh = human CDC25B-CDK2/CyclinA binding inhibition | P30305+P24941 | HTRF CDC25B-CDK2/CyclinA binding, anti-His/anti-Flag; active compounds read high | z-score (concentration not given with the values) | 94,000 compounds, 0.72% hits;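 also: score is relative to mean and SD of negative controls; strong numbers were not always called active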
# HIV TAR-Tat = HIV-1 TAR-Tat binding disruption | AID 1259389 | HIV-1 TAR RNA, Tat peptide displacement FRET; active compounds read high | z-score (concentration not given with the values) | 100,000 compounds, 0.6% hits;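 also: score is relative to mean and SD of negative controls; some compounds called inactive have numbers as strong as hits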
# * marks the source's active call; other numbers are inactive results; x = no result given.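 The calls were made as follows: active = z-score from 3 up in half or more of its runs; inactive = the rest.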
SMILES,CDC25B CDK2 inh,HIV TAR-Tat
O=C(OCc1ccco1)c1c(-c2ccccc2)c(-c2ccccc2)n[nH]c1=O,-2.8,1.6
CCCc1nc2c3ccccc3nc(NCCc3ccc(S(N)(=O)=O)cc3)n2n1,-1.2,-0.09
CCCc1noc(-c2c(-c3ccccc3Cl)noc2C)n1,x,3
COc1ccccc1OCCn1c(C)nc2cc(C)c(C)cc21,-1.8,2.7
Cc1nnc(N2CCCC(C(=O)N3CCc4ccccc43)C2)c2nn(-c3ccccc3)c(C)c12 (configuration not stated),x,0.8
S=c1[nH]nc(COc2cccc3cccnc23)n1-c1ccccc1,-1.4,x
COc1ccc(-c2ccc(NS(=O)(=O)c3ccccc3F)cc2)nn1,x,1.5
Cc1cc(=O)nc2c3ccccc3n(C(C)C(=O)N3CCc4ccccc4C3)n12 (configuration not stated),-1.7,0.87
O=S(=O)([O-])CCC[n+]1cnc2ncc3c(n21)/C(=C/c1ccccc1)CCC3,-0.34,x
Cn1c(C(=O)NCc2ccccn2)cc2c(=O)n3ccccc3nc21,-0.05,x
O=C(Nc1ccncc1)c1cc([N+](=O)[O-])ccc1Cl,-2.4,x
CCCCCOC(=O)c1[nH]c2c(c1C)C(=O)CC(c1cccs1)C2 (configuration not stated),-1.3,2
CSC1=C(C#N)C(c2ccccc2)C(C(C)=O)=C(C)N1 (configuration not stated),-2.5,x
CC(C)S(=O)(=O)/C(C#N)=C/Nc1ccc(Cl)cc1,-1.7,x
CC1(C)Cc2c(sc3nc(SCC(=O)Nc4ccccc4)nc(N)c23)CO1,-12,x
Cc1ccc(/C(O)=C2/C(=O)C(=O)N(c3ccc(O)cc3)C2c2ccccc2)cc1 (configuration not stated),-4.1,1.8
CCOc1ccc(C2C=C(C(=O)O)Nc3ncnn32)cc1OCC (configuration not stated),-0.58,1.9
O=S(=O)(c1ccccc1)c1nnn2c1nc(NCc1ccc(F)cc1)c1sccc12,x,-0.54
C=CCOCCN1Cc2ccccc2C1,0.26,0.31
Cc1ccc(C2CC(c3cccs3)n3nnnc3N2)cc1C (configuration not stated),x,1.7
Nc1nc(-c2ccc(Cl)cc2)nn1C(=O)c1cccc(Cl)c1,-1.5,0.62
O=C(NCc1ccc(Cl)cc1)c1cnc2sc(N3CCCC3)nn2c1=O,x,-0.36
O=C(c1cc2c(s1)-c1ccc(Cl)cc1S(=O)(=O)C2)N1CC=C(c2ccccc2)CC1,-1.3,2.7
O=C(NCc1cccnc1)c1cnn2c(C(F)(F)F)cc(-c3ccccc3)nc12,x,1.5
CCOC(=O)c1c[nH]c2nc(C)ccc2c1=S,-1.3,-7.8
CCNC(=O)C1=CC(c2ccco2)=NS(=O)(=O)N1C,-1.6,2.8
O=c1[nH]c(S)nc2c1sc(=S)n2-c1ccc(Cl)cc1,-1.5,-0.04
CCOc1ccc(OCC)c(NS(=O)(=O)c2ccc(-c3ccc(=O)[nH]n3)o2)c1,x,1.1
COc1ccc(-c2cc(C)nc3nc(N)nn23)cc1,1.3,0.8
O=C1COc2ccc(S(=O)(=O)N(CCO)Cc3ccccc3)cc2N1,x,2
O=C(CS(=O)(=O)c1cccc2nsnc12)Nc1cccc(Br)c1,x,0.79
O=C(O)CCCC(=O)Nc1ccc(Br)cn1,-0.67,1.5
CCOCCc1nn2c(=O)cc(COC(=O)c3ccccc3C)nc2s1,x,-1.1
CCCCNc1cc(C)nc2nc(-c3ccc(Cl)cc3)nn12,1.3,2.1
Cc1ccc(CN2C(=O)c3oc4ccc(Br)cc4c(=O)c3C2c2ccc(O)cc2)cc1 (configuration not stated),-0.65,-1.4
Cc1ccc(CSc2nc3c(c(=O)[nH]2)C(c2cccc(F)c2F)CC(=O)N3)cc1 (configuration not stated),-2.7,1.7
Nc1ccc(-c2nc3cc4ccccc4cc3[nH]2)cc1,-4,0.2
CCOC(=O)c1c(C)n(C)c2cc3c(cc12)OC(=O)C3(O)C(F)(F)F (configuration not stated),-2.2,x
CS/C(=N\Nc1ccccc1C(F)(F)F)NC(=O)c1c(Cl)cccc1Cl,-2.4,x
COc1ccc(-c2cc(-c3cc(OC)ccc3OC)n3ncnc3n2)cc1,-2.6,2.3
O=C(CCCN1Cc2ccccc2C1)Nc1c2c(nc3c1CCC3)CCCC2,-0.7,x
c1ccc(COn2nnc3ccccc32)c(COn2nnc3ccccc32)c1,-0.62,x
CC1Cc2ccccc2N1C(=O)c1cc2n(n1)C(C(F)(F)F)CC(c1ccco1)N2 (configuration not stated),-0.48,0.41
Cc1ccc(C(=O)OCc2cc(=O)n3c(C)csc3n2)cc1,x,0.68
CCCN1CCN(c2cc(NCCO)c3c4c(onc24)-c2ccccc2C3=O)CC1,-3.6,2.9
COc1ccc(Cc2nc(-c3ccccc3OC)n[nH]c2=O)cc1,x,2.4
Cc1ccc(NS(=O)(=O)c2ccc(-c3ccc(=O)[nH]n3)o2)cc1Cl,x,2.5
CCCOc1nnc(-c2ccc(C)c(S(=O)(=O)N(C)C)c2)c2ccccc12,-5.1,1.6
CCN1CCN(C2=NS(=O)(=O)C(c3ccccc3)=C2C)CC1,-2.1,0.4
CC(=O)N1CCN2C(=O)C1CCCC(=O)c1cc(C3CCCCC3)ccc12 (configuration not stated),0.85,-0.14
CCOC(=O)C(C)Oc1ccc2c(=O)c(Oc3cc(C)cc(C)c3C)coc2c1 (configuration not stated),-0.59,0.59
Cc1ccc(S(=O)(=O)N2CCCC(c3nc(-c4cccnc4)no3)C2)cc1 (configuration not stated),x,2.6
CCOC(=O)C1CCN(C(=O)c2sc3ncccc3c2-n2cccc2)CC1,x,0.4
Cc1nc(CC(=O)Nc2nnc(C3CC3)s2)cs1,0.16,0.67
N#Cc1nc(/C=C/c2cccs2)oc1N1CCN(C(=O)COc2ccccc2)CC1,0.14,0.99
CS(=O)(=O)Nc1ccc(/C(N)=N/OC(=O)c2ccccc2Cl)cc1,2.5,x
Cc1ccc(-c2onc(C)c2C)cc1S(=O)(=O)N1c2ccccc2CC1C (configuration not stated),x,0.96
O=C(NCCc1ccco1)c1ccc2c(c1)nc1n2CCOC1,x,2.2
CCOc1cccc(C2NC(=O)c3c(sc4c3CCN(C)C4)N2)c1O (configuration not stated),1.6,0.14
COc1cc(CNc2ccc3[nH]c(=O)[nH]c3c2)cc(Br)c1OCc1ccc(F)cc1,7.2*,-2.9
# Other records
SMILES,CDC25B CDK2 inh,HIV TAR-Tat
CCN(CC)S(=O)(=O)c1ccc2oc(C(=O)NC3CCCCC3)c(C)c2c1,-1.1,x
COc1cc(OC)cc(C(=O)Nc2nc3c(s2)Cc2cc(OC)ccc2-3)c1,-0.69,-0.26
CCOC(=O)Cc1csc(NC(=O)CSc2ccccn2)n1,-0.34,x
Clc1ccccc1-c1nc2c3cnn(-c4ccccc4Br)c3ncn2n1,-1.1,1.7
Nc1nc(-c2ccccc2Cl)nn1C(=O)C1CC1,-0.83,-0.09
CN(C)c1ccc(/C=C(\C#N)c2ccc([N+](=O)[O-])cc2)cc1[N+](=O)[O-],-1.4,x
CCCCCSc1nc2c(c(=O)[nH]1)CCCC2,-1,1.4
CC(C)c1ccc(NS(=O)(=O)c2ccc3c(c2)C(C)(C)C(=O)N3C)cc1,x,1.6
Cc1cc(Nc2cccc(O)c2)n2ncnc2n1,0.09,x
O=C(CCC1N=C2c3ccccc3N=C(SCc3cccc(F)c3)N2C1=O)NCc1cccs1 (configuration not stated),x,2.6
COc1ccc(OC)c(CN2CNc3c(c(=O)n(C)c(=O)n3C)C2)c1,-1.9,0.59
CC(C)NC(=O)C1=CCN(S(=O)(=O)c2ccc(F)cc2)CC1,-1.1,1.6
CS(=O)(=O)N1CCCc2cc(C(=O)N3CCOCC3)ccc21,-1.4,2.2
CC1(C)CC(=O)C2=C(C1)Nc1ccccc1NC2c1ccc(Cl)cc1 (configuration not stated),0.7,x
Cc1ccc(-c2nnc3ccc(SCc4ccccn4)nn23)cc1,-0.43,x
CC12CN(S(=O)(=O)c3ccccc3)CC(C)(CN(S(=O)(=O)c3ccccc3)C1)C2=O,-2.7,-1.4
CCOC(=O)c1c(NC(=O)CC2Sc3ccccc3NC2=O)sc2c1CCCC2 (configuration not stated),-1,x
COCCCNC(=O)CSC1=Nc2ccccc2C2=NC(Cc3c[nH]c4ccccc34)C(=O)N12 (configuration not stated),-0.77,x
OCc1nc2ccccc2n1CCOc1cccc(Cl)c1,-1.5,-0.89
COc1ccc(NC(=O)c2cnn3c2NC(c2cccs2)CC3C(F)(F)F)cc1OC (configuration not stated),-0.04,2.9
C=CCNC(=O)C(=O)NCC(c1ccc2c(c1)CCCN2C)N1CCOCC1 (configuration not stated),x,2.4
CCN(CC)CCNC(=O)c1sc2nc3n(c(=O)c2c1C)CCCCC3,x,-0.34
CC(C)c1nn2c(=O)cc(COc3cccc(NS(=O)(=O)c4ccc(Cl)cc4)c3)nc2s1,-0.4,0.94
Cc1ccc(-c2cc(C(F)(F)F)c(C#N)c(=S)[nH]2)cc1,-0.62,-1.6
Cc1ccc(-c2cnc(-c3ccccc3)sc2=O)cc1,-2.6,x
C=CCn1c(=O)c(C(=O)Nc2cccc(Br)c2)c(O)c2ccccc21,x,1.4
COc1ccc(NC(=O)N2CCC3(CC2)Nc2ccccc2-n2cccc23)c(OC)c1,x,0.45
CN(C(=O)CSc1nc(-c2ccc(Cl)cc2)nc2cc(=O)[nH]n12)c1ccccc1,x,0.65
CCCc1nn2c(=O)cc(CSCC(=O)Nc3cc(C)cc(C)c3)nc2s1,x,0.43
C#CC1(NS(=O)(=O)c2ccc(Sc3ccc(Cl)cc3)c([N+](=O)[O-])c2)CCCCC1,-1.8,x
CCC(C(=O)NCC1CCCO1)n1nc(C)n2c(cc3occc32)c1=O (configuration not stated),-2.1,-0.16
COc1ccc(-c2c(C(F)(F)F)oc3c(CN4CCCC4)c(O)ccc3c2=O)cc1OC,-0.43,2
Cc1ccc(/C(O)=C2\C(=O)C(=O)N(CCCC(=O)O)C2c2ccc(F)cc2)cc1 (configuration not stated),-0.62,0.33
Cc1ccc(S(=O)(=O)n2nc(-c3cccc(F)c3)cc2N)cc1,-1.3,1.1
Cc1n(CC(O)COc2cccc(Cl)c2)c2ccccc2[n+]1C (configuration not stated),-1.5,1.4
CCOC(=O)N1CCC(N=C2NS(=O)(=O)C(c3ccc(C)c(C)c3)=C2C)CC1,-2.7,0.39

# Next section; the last seven above are carried over.
SMILES,CDC25B CDK2 inh,HIV TAR-Tat
C#CC1(NS(=O)(=O)c2ccc(Sc3ccc(Cl)cc3)c([N+](=O)[O-])c2)CCCCC1,-1.8,x
CCC(C(=O)NCC1CCCO1)n1nc(C)n2c(cc3occc32)c1=O (configuration not stated),-2.1,-0.16
COc1ccc(-c2c(C(F)(F)F)oc3c(CN4CCCC4)c(O)ccc3c2=O)cc1OC,-0.43,2
Cc1ccc(/C(O)=C2\C(=O)C(=O)N(CCCC(=O)O)C2c2ccc(F)cc2)cc1 (configuration not stated),-0.62,0.33
Cc1ccc(S(=O)(=O)n2nc(-c3cccc(F)c3)cc2N)cc1,-1.3,1.1
Cc1n(CC(O)COc2cccc(Cl)c2)c2ccccc2[n+]1C (configuration not stated),-1.5,1.4
CCOC(=O)N1CCC(N=C2NS(=O)(=O)C(c3ccc(C)c(C)c3)=C2C)CC1,-2.7,0.39
Cc1cc(C)c(NC(=O)CCS(=O)(=O)c2ccc3c(c2)CC(C)N3C(=O)C2CC2)c(C)c1 (configuration not stated),x,-0.04
CC(C)(C)c1ccc(OCC(O)CN2CCOCC2)cc1 (configuration not stated),0.3,-1.6
O=C1NC(c2cccnc2)c2c1n[nH]c2-c1ccco1 (configuration not stated),8.9*,-5.5
COc1ccc(C2CC(=O)N3CN(c4ccc(N(C)C)cc4)CSC3=C2C#N)cc1 (configuration not stated),5.5*,-0.01
CCN(CC)CCNC(=O)c1[nH]nc2c1COc1ccccc1-2,x,-1.4
CCCn1cc(S(=O)(=O)c2ccc(Cl)cc2)c(=O)c2cc(F)c(N3CCN(CC)CC3)cc21,x,-0.72
O=C(NCc1nc(-c2ccc(C(F)(F)F)cc2)no1)c1ccccc1,-2.8,x
CC1=C(c2ccccc2)S(=O)(=O)N=C1Nc1ccc(C)cc1C,-0.21,0.18
Nc1nc(-c2ccc(Cl)cc2)nn1C(=O)Cc1ccc(Cl)cc1,-0.6,-0.83
C=CCOc1ccc(-c2nc3c(c(=O)[nH]2)Cc2cccc(OCC)c2O3)cc1,-0.22,1.2
Cc1ccc2nc3c(cc(C#N)c(=O)n3-c3cccc(Cl)c3C)c(=O)n2c1,-1.6,-0.68
CC1=C(C(=O)OCC(C)C)C(c2coc3ccccc3c2=O)C2=C(CC(c3cccs3)CC2=O)N1 (configuration not stated),-2.2,-0.11
O=C1C(=O)N(CCCN2CCOCC2)C(c2cccnc2)/C1=C(\O)c1ccc(F)cc1 (configuration not stated),0.13,1.3
COc1cccc(NC(c2ccccn2)c2ccc3cccnc3c2O)c1 (configuration not stated),-1.2,x
O=C1CCN(c2cc(Nc3ccc4c(c3)OCCO4)c3c4c(onc24)-c2ccccc2C3=O)CC1,-1.4,-0.32
Cc1cc(C)c(NS(=O)(=O)c2cc3[nH]c(=O)c(=O)[nH]c3cc2C)c(C)c1,x,2.5

# Reformatted as labelled records: entries from further up.
SMILES: O=C1C(=O)N(CCCN2CCOCC2)C(c2cccnc2)/C1=C(\O)c1ccc(F)cc1 (configuration not stated)
  CDC25B CDK2 inh: 0.13
  HIV TAR-Tat: 1.3
SMILES: COc1cccc(NC(c2ccccn2)c2ccc3cccnc3c2O)c1 (configuration not stated)
  CDC25B CDK2 inh: -1.2
  HIV TAR-Tat: x
SMILES: O=C1CCN(c2cc(Nc3ccc4c(c3)OCCO4)c3c4c(onc24)-c2ccccc2C3=O)CC1
  CDC25B CDK2 inh: -1.4
  HIV TAR-Tat: -0.32
SMILES: Cc1cc(C)c(NS(=O)(=O)c2cc3[nH]c(=O)c(=O)[nH]c3cc2C)c(C)c1
  CDC25B CDK2 inh: x
  HIV TAR-Tat: 2.5
